Bioassay records from PubChem BioAssay.
GIV Gai3 FP: blocks GIV peptide binding to rat Galpha-i3. P08753. Galpha-i3/FITC-GIV peptide fluorescence polarization, 90 min; active compounds read low; scaled: aluminum fluoride 0%, vehicle 100%. percent of control (FP), % (no concentration beside the values). 0.42% of 210,000 active;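 active = replicate mean at 85% of control or lower, very high polarization wells dropped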;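 also: wells of about 15 µL received 100 nL stock; the first replicate is given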
Target sequence (P08753 whole entry, looked up): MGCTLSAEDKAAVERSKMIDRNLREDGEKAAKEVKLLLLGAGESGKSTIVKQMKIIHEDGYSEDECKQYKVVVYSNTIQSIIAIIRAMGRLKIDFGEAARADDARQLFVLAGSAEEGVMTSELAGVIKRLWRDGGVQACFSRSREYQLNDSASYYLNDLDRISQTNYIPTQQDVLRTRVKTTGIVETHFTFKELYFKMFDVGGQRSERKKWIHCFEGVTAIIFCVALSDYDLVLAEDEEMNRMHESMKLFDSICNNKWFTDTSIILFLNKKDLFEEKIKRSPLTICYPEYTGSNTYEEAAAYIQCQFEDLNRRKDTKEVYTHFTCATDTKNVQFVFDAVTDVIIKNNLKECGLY
Sa growth inh: blocks Staphylococcus aureus growth. S. aureus RN4220 growth, OD600, 20 h, 42 °C; active compounds read low. relative growth, % (no concentration beside the values). 0.53% of 170,000 active;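 active = growth at 42 °C up to 50% and 20 or more points under that at 30 °C, or under 10% at both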;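 also: 300 nL library stock went into each well; scaled to the means of positive and negative controls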
HCMV NEC inh: inhibitors of HCMV UL50-UL53 nuclear egress complex interaction. inhibition, % (no concentration beside the values). HTRF UL50-UL53 interaction, normalized percent inhibition. 0.15% of 190,000 active;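 active = both replicates at 50% or more, plus weaker picks with an unusually low signal ratio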;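 also: stock transfer was 100 nL into about 20 µL; 0% = negative control wells and 100% = wells with untagged competitor protein; inactives centre near -12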
Sa growth inh second temp: also measured in Sa growth inh; calls as there; relative growth, %; measured here: growth at 30 °C;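 optical density after 20 h as mean of two plates; 100% = untreated growth and lower means inhibition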
* = called active by the depositor; & = joins results of further samples.

`CC(=O)Oc1ccc(C2OCC3C(C)C=C(C)C2C3C)cc1` (stereo not drawn) gave GIV Gai3 FP 101, Sa growth inh 108 and Sa growth inh second temp 88.
c1cn(CCCNc2ncnc3sc4c(c23)CCCCC4)cn1 was read as GIV Gai3 FP 101, Sa growth inh 87, HCMV NEC inh -28 and Sa growth inh second temp 62.
Screening CCN(CC)CCNC(=O)Cn1nc(N2CCN(c3ccccc3)CC2)ccc1=O returned GIV Gai3 FP 110 and HCMV NEC inh -24.
`CCOC(=O)c1ccc(NC(=O)CCN2C(=O)/C(=C\C(C)=C\c3ccccc3)SC2=S)cc1` gave GIV Gai3 FP 100 and HCMV NEC inh -2.
N#CCNC(=O)c1ccccc1Br was read as GIV Gai3 FP 106, Sa growth inh 104, HCMV NEC inh -2 and Sa growth inh second temp 107.
`Cc1ccc(C(=O)C(C)Sc2nncn2-c2ccccc2)cc1` (stereo not drawn) gave Sa growth inh 91, HCMV NEC inh -5 and Sa growth inh second temp 101.
Screening Cc1c(OCC(=O)OCc2ccccc2)ccc2c1oc(=O)c1ccccc12 returned Sa growth inh 90, HCMV NEC inh -3 and Sa growth inh second temp 88.
Screening c1cc(CNCc2ccc3c(c2)OCO3)ccn1 returned GIV Gai3 FP 101, Sa growth inh 92, HCMV NEC inh -17 and Sa growth inh second temp 91.
COCC(=O)NC(C)c1nc2ccccc2n1Cc1cc(C)ccc1C (stereo not drawn) was read as GIV Gai3 FP 99, Sa growth inh 117 and Sa growth inh second temp 93.
`COc1ccccc1-c1nnc(NC(=O)c2ccc(S(=O)(=O)N3CC(C)OC(C)C3)cc2)o1` (stereo not drawn) gave GIV Gai3 FP 112, Sa growth inh 55 and Sa growth inh second temp 37.
CCN=c1scc(-c2ccco2)n1/N=C/c1ccsc1 was read as Sa growth inh 66, HCMV NEC inh -6 and Sa growth inh second temp 70.
For COc1cccc(Cc2nnc(-c3snnc3C)o2)c1 the results were GIV Gai3 FP 103, Sa growth inh 88, HCMV NEC inh -12 and Sa growth inh second temp 83.
For CC(C)Cn1c(=O)c2ccccc2n2c(-c3ccc(Br)cc3)nnc12 the results were GIV Gai3 FP 103, Sa growth inh 106, HCMV NEC inh -5 and Sa growth inh second temp 88.
Screening CN(C)/C=C(\C#N)c1cccc(C(F)(F)F)c1 returned GIV Gai3 FP 106, Sa growth inh 100, HCMV NEC inh 14 and Sa growth inh second temp 100.
COc1cc2nc(-c3cccs3)oc(=O)c2cc1OC was read as GIV Gai3 FP 112, Sa growth inh 119, HCMV NEC inh 16 and Sa growth inh second temp 100.
Screening CN1CCC(=NNC(=O)c2ccccc2)CC1 returned GIV Gai3 FP 98, Sa growth inh 89, HCMV NEC inh -19 and Sa growth inh second temp 88.
Screening OCCn1c(CNc2cc(Cl)ccc2N2CCCCC2)nc2ccc(Cl)cc21 returned Sa growth inh 92, HCMV NEC inh 2 and Sa growth inh second temp 94.
For Cc1ccc(NC(=O)c2nn(C)c3c2COc2ccccc2-3)c(Br)c1 the results were GIV Gai3 FP 107 and HCMV NEC inh -4.
`CCOC(=O)C1=C(CSc2ccc(Cl)cc2)NC(=O)NC1c1cc(C)ccc1C` (stereo not drawn) gave GIV Gai3 FP 102, Sa growth inh 147 and Sa growth inh second temp 68.
`O=c1cc(CSc2nc3ccccc3o2)[nH]c(=S)[nH]1` gave GIV Gai3 FP 96, Sa growth inh 105 and Sa growth inh second temp 84.

Next section; the last 2 above are carried over.
`CCOC(=O)C1=C(CSc2ccc(Cl)cc2)NC(=O)NC1c1cc(C)ccc1C` (stereo not drawn) gave GIV Gai3 FP 102, Sa growth inh 147 and Sa growth inh second temp 68.
`O=c1cc(CSc2nc3ccccc3o2)[nH]c(=S)[nH]1` gave GIV Gai3 FP 96, Sa growth inh 105 and Sa growth inh second temp 84.
For O=C(NCCc1ccccc1)c1ccc2nc[nH]c2c1 the results were GIV Gai3 FP 95, Sa growth inh 92, HCMV NEC inh -8 and Sa growth inh second temp 90.
Screening CCC1CCCCN1CN1C(=O)c2cc(Cl)c(Cl)cc2C1=O (stereo not drawn) returned Sa growth inh 98, HCMV NEC inh -69 and Sa growth inh second temp 96.
`CCn1cc(CNC(=O)c2cnn3c(C(F)F)cc(-c4ccccc4)nc23)c(C)n1` gave GIV Gai3 FP 125 and HCMV NEC inh -54.
For COCC(C)NS(=O)(=O)c1c(C)cc(C)cc1C (stereo not drawn) the results were Sa growth inh 93, HCMV NEC inh -20 and Sa growth inh second temp 93.
For COc1cc2cc(CNc3ccc(C)cc3)c(=O)n(CC(=O)Nc3ccc(F)cc3F)c2cc1OC the results were GIV Gai3 FP 105, Sa growth inh 73 and Sa growth inh second temp 96.
`CCOC(=O)CN1C(=O)CC(c2ccccc2)C1=O` (stereo not drawn) gave GIV Gai3 FP 102, Sa growth inh 102, HCMV NEC inh -4 and Sa growth inh second temp 88.
For C=CCc1ccc(O)c(OC)c1 the results were Sa growth inh 87, HCMV NEC inh -18 and Sa growth inh second temp 90.
For COc1ccc(C2=NN(S(=O)(=O)c3ccc(C)cc3)C(c3ccc(OC)cc3)C2)cc1 (stereo not drawn) the results were GIV Gai3 FP 104 and HCMV NEC inh -20.
`FC(F)(F)c1cc(-c2ccc3ccccc3c2)no1` gave Sa growth inh 79, HCMV NEC inh -7 and Sa growth inh second temp 50.
`COc1ccc(CCNC(=O)C(=O)NCC(c2ccco2)S(=O)(=O)c2cccs2)cc1` (stereo not drawn) gave GIV Gai3 FP 105, Sa growth inh 122 and Sa growth inh second temp 97.
COc1cc(/C=C2/SC(=Nc3ccccc3)NC2=O)cc(OC)c1OC was read as GIV Gai3 FP 111 and HCMV NEC inh -36.
COC(=O)c1c(NC(=O)N2CCCC2c2ccc(F)cc2)sc2c1CCCC2 (stereo not drawn) was read as GIV Gai3 FP 104 and HCMV NEC inh 19.
Cc1ccc(O)c(C(CC(=O)NCC2(c3ccccc3)CCCC2)c2ccccc2)c1 (stereo not drawn) was read as GIV Gai3 FP 106, Sa growth inh 123, HCMV NEC inh 1 and Sa growth inh second temp 103.
Cc1ccc(C)c(CNC(=O)c2cnc3sc(N4CCCC4)nn3c2=O)c1 was read as GIV Gai3 FP 99, Sa growth inh 90, HCMV NEC inh -20 and Sa growth inh second temp 92.
`COc1ccccc1NC(=O)C(C)OC(=O)c1cccc(-n2cnnn2)c1` (stereo not drawn) gave Sa growth inh 100, HCMV NEC inh -17 and Sa growth inh second temp 87.
For Cc1ccccc1Nc1nn2c(=O)c3ccc(C(=O)NCc4ccccc4)cc3nc2s1 the results were GIV Gai3 FP 106, Sa growth inh 121 and Sa growth inh second temp 75.
Screening COc1ccc(C2NCCc3c2[nH]c2ccccc32)cc1OC (stereo not drawn) returned GIV Gai3 FP 102 and HCMV NEC inh -17.
`O=c1[nH]c(-c2ccco2)nc2sc3c(c12)CCCC3` gave Sa growth inh 142, HCMV NEC inh -26 and Sa growth inh second temp 81.
Screening OC(CN1CCN(c2ccccc2)CC1)C(F)(F)F (stereo not drawn) returned GIV Gai3 FP 102 and HCMV NEC inh -16.
`CN(c1ccc(OCC(=O)N2CCOCC2)cc1)S(=O)(=O)c1ccc(F)cc1` gave Sa growth inh 92, HCMV NEC inh -11 and Sa growth inh second temp 85.
For COc1ccc(-c2csc(-n3[nH]c(C)c(C(c4ccc(Cl)cc4)C(C#N)C(N)=O)c3=O)n2)cc1 (stereo not drawn) the results were GIV Gai3 FP 100, Sa growth inh 116, HCMV NEC inh -20 and Sa growth inh second temp 67.
For S=C(NCc1ccc2c(c1)OCO2)Nc1ccccc1 the results were GIV Gai3 FP 108, Sa growth inh 102, HCMV NEC inh 16 and Sa growth inh second temp 82.
COc1ccc(CNCc2c(C(=O)O)c(C)n(Cc3ccc(Cl)cc3)c2C)c(OC)c1 was read as GIV Gai3 FP 107, Sa growth inh 114, HCMV NEC inh 10 and Sa growth inh second temp 103.
For CC1=Nn2c(nnc2-c2ccc(Cl)cc2)SC1 the results were GIV Gai3 FP 104&100, Sa growth inh 101, HCMV NEC inh -16&-24 and Sa growth inh second temp 89.
Screening O=C(CN1N=C(c2ccccc2F)c2cc(Cl)ccc2S1(=O)=O)NCc1ccc(F)cc1 returned GIV Gai3 FP 98 and HCMV NEC inh -10.
Cc1cccc(-c2nc(CSCC(=O)N3CCN(c4cccc(C)c4C)CC3)c(C)o2)c1 was read as GIV Gai3 FP 107, Sa growth inh 111 and Sa growth inh second temp 98.
For Cc1cc(C)cc(-n2c(=O)c3oc4ccccc4c3n(CC#N)c2=O)c1 the results were GIV Gai3 FP 98, Sa growth inh 112, HCMV NEC inh -25 and Sa growth inh second temp 99.
Screening CCC(=O)c1c(-c2ccccc2)nc2n(CCN(CC)CC)c3ccccc3n12 returned GIV Gai3 FP 101, Sa growth inh 75 and Sa growth inh second temp 48.
For CCC(=O)N1CCCc2cc(S(=O)(=O)Nc3ccc(C)c(C)c3)ccc21 the results were GIV Gai3 FP 101, Sa growth inh 105, HCMV NEC inh -25 and Sa growth inh second temp 87.
For CC(C)(C)NC(=O)c1cccs1 the results were GIV Gai3 FP 107, Sa growth inh 96, HCMV NEC inh 6 and Sa growth inh second temp 95.
`Cc1cccc(NC(=O)CSc2nnc(CSc3nc(C)cc(C)n3)o2)c1` gave GIV Gai3 FP 104, Sa growth inh 106, HCMV NEC inh -8 and Sa growth inh second temp 89.
Screening O=C1CCCC/C1=C/Nc1ccc(Br)cc1F returned GIV Gai3 FP 106, Sa growth inh 101, HCMV NEC inh -37 and Sa growth inh second temp 102.
Screening COc1ccccc1CNC(=O)CN(c1ccccc1OC)S(C)(=O)=O returned GIV Gai3 FP 100, Sa growth inh 84 and Sa growth inh second temp 95.
Screening O=c1c2cc3c(cc2nc2sc(Nc4ccc(F)cc4F)nn12)OCO3 returned GIV Gai3 FP 97, Sa growth inh 89, HCMV NEC inh 11 and Sa growth inh second temp 85.
Screening Cc1nn(C)c(C)c1CCN(C)S(=O)(=O)c1ccc(Cl)s1 returned GIV Gai3 FP 101 and HCMV NEC inh -25.
`O=C(NC1CC1)c1cnn2c3c(cnc12)CCCCCC3` gave GIV Gai3 FP 100 and HCMV NEC inh 6.
Screening CCc1cc(=O)[nH]c(SCc2nc(-c3ccc(C(F)(F)F)cc3)no2)n1 returned GIV Gai3 FP 102, Sa growth inh 88 and Sa growth inh second temp 92.
`Cc1ccc(O)c(-c2cc(C(F)(F)F)no2)c1` gave Sa growth inh 0.2*, HCMV NEC inh -13 and Sa growth inh second temp 1.8*.
COc1cccc(NC(=O)CCNc2ccccc2C)c1 was read as Sa growth inh 96, HCMV NEC inh -24 and Sa growth inh second temp 86.
CCCN1CC=C2C(C#N)=C(N)C(C#N)(C#N)C(C(C)C)C2C1 (stereo not drawn) was read as GIV Gai3 FP 90, Sa growth inh 102, HCMV NEC inh -63 and Sa growth inh second temp 94.

At a glance, some entries already given.
For COc1ccc(-c2csc(-n3[nH]c(C)c(C(c4ccc(Cl)cc4)C(C#N)C(N)=O)c3=O)n2)cc1 (stereo not drawn) the results were GIV Gai3 FP 100, Sa growth inh 116, HCMV NEC inh -20 and Sa growth inh second temp 67.
For S=C(NCc1ccc2c(c1)OCO2)Nc1ccccc1 the results were GIV Gai3 FP 108, Sa growth inh 102, HCMV NEC inh 16 and Sa growth inh second temp 82.
COc1ccc(CNCc2c(C(=O)O)c(C)n(Cc3ccc(Cl)cc3)c2C)c(OC)c1 was read as GIV Gai3 FP 107, Sa growth inh 114, HCMV NEC inh 10 and Sa growth inh second temp 103.
For CC1=Nn2c(nnc2-c2ccc(Cl)cc2)SC1 the results were GIV Gai3 FP 104&100, Sa growth inh 101, HCMV NEC inh -16&-24 and Sa growth inh second temp 89.
Screening O=C(CN1N=C(c2ccccc2F)c2cc(Cl)ccc2S1(=O)=O)NCc1ccc(F)cc1 returned GIV Gai3 FP 98 and HCMV NEC inh -10.
Cc1cccc(-c2nc(CSCC(=O)N3CCN(c4cccc(C)c4C)CC3)c(C)o2)c1 was read as GIV Gai3 FP 107, Sa growth inh 111 and Sa growth inh second temp 98.

(list continues)
For COc1ccccc1OCc1ccc(C(=O)Nc2ccccc2Cl)o1 the results were GIV Gai3 FP 103, Sa growth inh 94, HCMV NEC inh -33 and Sa growth inh second temp 84.
`O=C(NCC1CCCO1)c1cc2ncc(Br)cn2n1` (stereo not drawn) gave GIV Gai3 FP 107, Sa growth inh 110, HCMV NEC inh -45 and Sa growth inh second temp 96.
Screening CCOc1nc(Cl)nc(N(C2CCCCC2)C2CCCCC2)n1 returned GIV Gai3 FP 106, Sa growth inh 68, HCMV NEC inh 9 and Sa growth inh second temp 93.
`O=C(O)CCc1nnc2cnc3ccccc3n12` gave GIV Gai3 FP 106, Sa growth inh 91, HCMV NEC inh 14 and Sa growth inh second temp 101.
`CCN1C(=O)/C(=C\c2ccc(-c3ccc(Br)cc3C(=O)O)o2)N(CC)C1=S` gave GIV Gai3 FP 186, Sa growth inh 70, HCMV NEC inh -53 and Sa growth inh second temp 65.
Screening CCOc1ccc2c(c1)-c1c(ssc1=Nc1ccc(NC(C)=O)cc1)C(C)(C)N2 returned GIV Gai3 FP 96, Sa growth inh 110 and Sa growth inh second temp 82.
For Cc1cc(C)cc(OCc2ccc(C(=O)NN)o2)c1 the results were Sa growth inh 82, HCMV NEC inh -20 and Sa growth inh second temp 75.
O=C(c1cc2c(c3ccccc13)NC1CCC2(C(F)(F)F)O1)C(F)(F)F (stereo not drawn) was read as GIV Gai3 FP 108, Sa growth inh 70, HCMV NEC inh -4 and Sa growth inh second temp 75.
`Cn1c(C(=O)NCCc2ccccc2)cc2c(=O)n3ccccc3nc21` gave GIV Gai3 FP 99, Sa growth inh 89, HCMV NEC inh -25 and Sa growth inh second temp 92.
